Source: PubChem
TRPV1 PAM – human TRPV1 potentiation; Q8NER1; TRPV1-expressing cells, Fluo-8 calcium influx, capsaicin EC20 potentiation; host cell line not named in the record; control for the full effect not named in the record; potentiation, % at 8.33 µM; 320,000 compounds, 0.02% hits; active means potentiation above 80%; inconclusive means 30% to 80%; inactive means below 30%; note: 0% is about no effect
Target sequence (Q8NER1 whole entry, looked up): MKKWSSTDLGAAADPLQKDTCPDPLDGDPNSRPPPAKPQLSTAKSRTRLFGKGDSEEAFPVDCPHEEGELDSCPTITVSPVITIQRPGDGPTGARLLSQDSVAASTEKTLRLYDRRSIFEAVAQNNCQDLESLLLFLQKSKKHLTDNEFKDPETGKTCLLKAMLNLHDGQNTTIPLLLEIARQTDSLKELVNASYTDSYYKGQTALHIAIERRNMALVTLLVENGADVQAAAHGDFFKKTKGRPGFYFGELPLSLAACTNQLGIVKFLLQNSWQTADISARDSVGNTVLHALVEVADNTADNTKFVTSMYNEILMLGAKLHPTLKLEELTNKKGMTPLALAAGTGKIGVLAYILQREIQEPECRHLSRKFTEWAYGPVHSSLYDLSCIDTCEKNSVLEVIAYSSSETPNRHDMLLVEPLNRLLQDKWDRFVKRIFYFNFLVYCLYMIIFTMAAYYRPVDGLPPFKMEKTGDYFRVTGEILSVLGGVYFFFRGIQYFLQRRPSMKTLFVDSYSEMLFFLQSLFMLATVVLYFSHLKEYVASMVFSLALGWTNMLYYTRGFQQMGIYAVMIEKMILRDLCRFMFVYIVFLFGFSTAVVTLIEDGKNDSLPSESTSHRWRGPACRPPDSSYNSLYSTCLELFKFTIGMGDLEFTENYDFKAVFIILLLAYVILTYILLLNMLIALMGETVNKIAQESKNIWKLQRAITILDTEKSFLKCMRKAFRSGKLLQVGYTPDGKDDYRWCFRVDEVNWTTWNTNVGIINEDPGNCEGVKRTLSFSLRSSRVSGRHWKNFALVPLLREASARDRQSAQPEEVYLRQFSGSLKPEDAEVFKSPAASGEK
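TRPV1-expressing cells were cultured overnight at 35.5C and loaded with Fluo-8 calcium dye for 40 to 90 min at room temperature. After a 10 s baseline, compound was added and calcium influx was read kinetically for 3 min (ex 480/em 520 nm).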
CtBP-E1A inh – blocks the CtBP interaction with E1A; 340,000 compounds, 0.49% hits; activity change, % (concentration not given with the values); AlphaScreen GST-E1A/His-CtBP binding, 1536-well; active compounds read low; control for the full effect not named in the record; in the data active means activity change below about -65%; inconclusive means about -30% to -65%; inactive means above about -30%; note: % is set by controls: 0 for no effect and ±100 for the full control effect
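Protein mix (5X: 125 nM each GST-E1A, His-CtBP) was incubated with pinned compound 2 h at 37 deg C in dark, in 50 mM Tris pH 8.0 buffer with 300 mM NaCl. Glutathione donor and nickel acceptor beads followed; AlphaScreen signal read after 1 h.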
Six1-Eya2 inh – blocks human Six1 binding to Eya2. Q15475+O00167. AID 651725. AlphaScreen GST-Six1/His-Eya2 binding, biochemical; active compounds read low; control for the full effect not named in the record. activity change, % (concentration not given with the values). 360,000 compounds, 0.56% hits; in the data active = activity change below about -65%; inconclusive = about -30% to -65%; inactive = above about -30%; note: % is set by controls: 0 for no effect and ±100 for the full control effect
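AlphaScreen luminescence read after one hour at 37 °C in darkness. Pin-transferred compounds met GST-Six1 and His-Eya2 protein (5X stock 250 nM/500 nM) plus glutathione donor and Ni-chelate acceptor beads (5X, 50 ug/mL).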
TRPML1 inh – inhibitors of human TRPML1 channel | Q9GZU1 | TRPML1-inducible cells, Ca2+ dye fluorescence, FDSS; active compounds read low; inhibition of EC80 agonist-evoked calcium signal | activity change, negative = inhibition, % (test concentration not listed) | 390,000 compounds, 0.02% hits | AID 624415; in the data active means activity change below about -50%; inconclusive means about -30% to -50%; inactive means above about -30%;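 note: stimulus is agonist 54-4 at its EC80 concentration; % is set by controls: 0 for no effect and ±100 for the full control effect; compound concentration not given in the record; the text of the record puts the active cut at -80%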
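TRPML1-DL cells, Tet-induced overnight (~16 h, 37 °C) at 1,500 cells/well, were loaded with Ca8 no-wash dye plus quencher for 45-90 min at room temperature. Compounds were pinned during FDSS kinetic reading; agonist 54-4 at EC80 (4 uM final) then added.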
TRPML1 ag – activates the human TRPML1 channel. 410,000 compounds, 0.12% hits. activation, % (no concentration beside the values). TRPML1-expressing cells, Ca2+ dye fluorescence, FDSS; host cell line not named in the record; reference of the full effect not given here; in the data active = activation above about 50%; inconclusive = about 30% to 50%; inactive = below about 30%; note: 0% is about no effect; the text of the record puts the active cut at 80%
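In this qHTS format, compounds were pin-transferred onto Ca8-dye-loaded TRPML1-DL cells induced with Tet overnight, and intracellular Ca2+ fluorescence was recorded kinetically for 110 s after a 10 s baseline. A subsequent 4uM final 54-4 (EC80) addition followed by a second 110 s read served as the antagonist phase.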
D2 PAM – human D2 receptor positive allosteric modulation | potentiation, % (no concentration beside the values) | AID 624464 | 360,000 compounds, 0.23% hits | DiscoveRx D2 beta-arrestin cells, luminescence, 90 min; 100% = 57 uM dopamine signal; active = potentiation of 50% or more; inconclusive = 30% to 50%; inactive = 30% or less;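 note: compound concentration not given in the record; tested on top of an EC20 dose of dopamine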
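D2 cells co-treated with compound plus 50 nM dopamine (EC20) for 90 min at 37 deg C to detect potentiation. Beta-arrestin recruitment was read as enzyme-fragment luminescence after 1 h at ambient temperature. Full response was set by 57 uM dopamine.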
* = called active by the depositor.

How did c1ccc(-c2nnc(C3CC(c4ccncc4)=NO3)o2)cc1 (stereo not given) do in these assays?
CtBP-E1A inh: 5; Six1-Eya2 inh: 7; TRPML1 inh: 6; TRPML1 ag: 0.2; D2 PAM: 1

Results for C=C(C)COc1ccc(-c2ncncc2-c2ccc(Br)cc2)c(O)c1 ?
TRPV1 PAM: 0; CtBP-E1A inh: -6; Six1-Eya2 inh: -6; TRPML1 inh: 50; TRPML1 ag: -0.1; D2 PAM: 5

What do the screens show for `CCOC(=O)/C(N)=C/c1ncc(C(F)(F)F)cc1Cl`?
TRPV1 PAM: 17; CtBP-E1A inh: -6; Six1-Eya2 inh: -10; TRPML1 inh: 6; TRPML1 ag: -0.4; D2 PAM: -31

How did S=c1[nH]nc(-c2ccccc2)n1/N=C/c1cccs1 do in these assays?
TRPV1 PAM: 19; CtBP-E1A inh: 6; Six1-Eya2 inh: -5; TRPML1 inh: 2; TRPML1 ag: -0.5; D2 PAM: -22

What do the screens show for `CC(=O)Nc1ccc(Sc2ccccc2C(=O)O)cn1`?
TRPV1 PAM: -1; CtBP-E1A inh: -3; Six1-Eya2 inh: -9; D2 PAM: -23

How did O=C(NCc1cccs1)C1CCN(c2nccs2)CC1 do in these assays?
TRPV1 PAM: 0; CtBP-E1A inh: -5; Six1-Eya2 inh: -2; TRPML1 inh: -1; TRPML1 ag: -0.9; D2 PAM: -6

What do the screens show for `COc1ccc(NCC(=O)N2CCCC2)cc1Cl`?
TRPV1 PAM: -2; CtBP-E1A inh: 4; Six1-Eya2 inh: -4; TRPML1 inh: 6; TRPML1 ag: -1.3; D2 PAM: -3

Results for Cc1cc(C(=O)O)cc(S(=O)(=O)Nc2ccccc2C(=O)NC(C)c2ccccc2)c1C (stereo not given) ?
TRPV1 PAM: -5; CtBP-E1A inh: -2; Six1-Eya2 inh: -5; TRPML1 inh: -8; TRPML1 ag: -0.2; D2 PAM: 12

What do the screens show for `COc1cc(NC(=O)CN2C(=O)c3ccccc3S2(=O)=O)c(OC)cc1Cl`?
TRPV1 PAM: 21; CtBP-E1A inh: -3; Six1-Eya2 inh: -3; TRPML1 inh: -6; TRPML1 ag: -0.1; D2 PAM: -30

What do the screens show for `CCOC(=O)C(NC(=O)CC)(Nc1ccc(S(N)(=O)=O)cc1)C(F)(F)F` (stereo not given)?
TRPV1 PAM: -11; CtBP-E1A inh: -4; Six1-Eya2 inh: 2; TRPML1 inh: 25; TRPML1 ag: 0.7; D2 PAM: -8

How did Cc1cc(C)cc(NC(=O)N2CCC(NC(=O)c3ccc(F)cc3)CC2)c1 do in these assays?
TRPV1 PAM: -10; CtBP-E1A inh: 0; Six1-Eya2 inh: 5; TRPML1 inh: 3; TRPML1 ag: 0.0; D2 PAM: -29

How did Cc1cs/c(=N\N=C\c2cccc([N+](=O)[O-])c2)n1Cc1ccco1 do in these assays?
TRPV1 PAM: 0; CtBP-E1A inh: -1; Six1-Eya2 inh: -15; TRPML1 inh: 4; TRPML1 ag: 2.1; D2 PAM: 3

What do the screens show for `Cc1csc(NC(=O)CN2CCCCCC2)n1`?
TRPV1 PAM: -14; CtBP-E1A inh: -1; Six1-Eya2 inh: 1; TRPML1 inh: -3; TRPML1 ag: 0.6; D2 PAM: -17

Results for COc1ccccc1C(=O)NCC[N+](C)(C)C ?
CtBP-E1A inh: 4; Six1-Eya2 inh: 3; TRPML1 ag: -0.4

Results for N#Cc1ccc(S(=O)(=O)N2CCc3[nH]c4ccc(F)cc4c3C2)cc1 ?
TRPV1 PAM: 8; CtBP-E1A inh: -2; Six1-Eya2 inh: -1; TRPML1 inh: -3; TRPML1 ag: 1.5; D2 PAM: -3

What do the screens show for `CC(C)c1ccc(C2c3[nH]c4ccccc4c3C[C@H]3C(=O)N(c4ccccc4C(=O)N4CCC[C@@H]4C(=O)O)C(=O)N23)cc1` (stereo not given in full)?
TRPV1 PAM: -7; CtBP-E1A inh: 3; Six1-Eya2 inh: -2; D2 PAM: 0

Results for Cc1[nH]c(=O)[nH]c(=O)c1S(=O)(=O)N1CCC(C(=O)N2CCN(Cc3ccccc3)CC2)CC1 ?
TRPV1 PAM: 4; CtBP-E1A inh: 2; Six1-Eya2 inh: -9; TRPML1 inh: -23; TRPML1 ag: 0.8; D2 PAM: -2

Results for COc1ccc(CN2CCC(CO)(CCOc3ccccc3)CC2)cc1C ?
TRPV1 PAM: -4; CtBP-E1A inh: 10; Six1-Eya2 inh: 3; TRPML1 inh: 2; TRPML1 ag: 0.3; D2 PAM: -31

Results for CCOC(=O)N1CCN(C(=O)CSCc2nc(-c3ccccc3F)oc2C)CC1 ?
TRPV1 PAM: 3; CtBP-E1A inh: -15; Six1-Eya2 inh: -9; TRPML1 inh: 1; TRPML1 ag: 1.1; D2 PAM: -4

Results for Cc1sc2ncnc(SCC#N)c2c1C ?
TRPV1 PAM: -11; CtBP-E1A inh: 11; Six1-Eya2 inh: -3; TRPML1 inh: 2; TRPML1 ag: -0.5; D2 PAM: -6

What do the screens show for `Cn1c(=O)n(CC(=O)O)c(=O)c2c1nc1n2CCCN1Cc1ccccc1`?
TRPV1 PAM: -19; CtBP-E1A inh: -4; Six1-Eya2 inh: -7; TRPML1 inh: 0; TRPML1 ag: 0.3; D2 PAM: -3

How did O=C1NC2(CCCCCC2)C(=O)N1CCS(=O)(=O)Oc1ccccc1 do in these assays?
TRPV1 PAM: 1; CtBP-E1A inh: 1; Six1-Eya2 inh: 1; TRPML1 inh: -4; TRPML1 ag: 0.3; D2 PAM: -1

What do the screens show for `CCCCC[C@H](C)N1C[C@H](COCc2ccccc2)Oc2cc(N3CC[C@H](O)C3)ccc2S1(=O)=O`?
CtBP-E1A inh: -10; Six1-Eya2 inh: -6; TRPML1 ag: -0.1

How did COc1ccc(Oc2cc(F)nc(N)n2)cc1 do in these assays?
TRPV1 PAM: 0; CtBP-E1A inh: -2; Six1-Eya2 inh: 3; TRPML1 inh: -17; TRPML1 ag: 0.7; D2 PAM: -9

What do the screens show for `CCCCN1C(=O)C(CC(=O)NCc2ccco2)CC(C(=O)N2CCCCCC2)=C1C` (stereo not given)?
CtBP-E1A inh: 2; Six1-Eya2 inh: 15; TRPML1 ag: -0.6

How did COc1ccccc1/C=N/NC(=O)c1nnn(-c2nonc2N)c1CN(C)c1ccccc1 do in these assays?
TRPV1 PAM: 24; Six1-Eya2 inh: -9; TRPML1 inh: 23; TRPML1 ag: 1.3; D2 PAM: -3

What do the screens show for `CC(C)c1cc(C(=O)NCc2ccco2)no1`?
TRPV1 PAM: 14; CtBP-E1A inh: 4; Six1-Eya2 inh: -5; TRPML1 inh: 10; TRPML1 ag: -0.7; D2 PAM: -3

What do the screens show for `COc1ccc(C2CC23N=C(c2ccccc2)OC3=O)cc1` (stereo not given)?
TRPV1 PAM: 3; CtBP-E1A inh: 1; Six1-Eya2 inh: 4; TRPML1 inh: 5; TRPML1 ag: 0.2; D2 PAM: -16

Results for O=CN1CCN(S(=O)(=O)c2ccc(S(=O)(=O)NC3CCCCC3)cc2)CC1 ?
TRPV1 PAM: -5; CtBP-E1A inh: -11; Six1-Eya2 inh: 1; TRPML1 inh: -3; TRPML1 ag: 0.5; D2 PAM: -4

How did COc1ccc(/C=N/NC(=O)Cn2ccnc2C)cc1OC do in these assays?
TRPV1 PAM: 1; CtBP-E1A inh: -8; Six1-Eya2 inh: -2; TRPML1 inh: 8; TRPML1 ag: -0.2; D2 PAM: -8

Results for CC(C)=CCC(C)(C)C1OCCN1C(=O)Nc1ccccc1 (stereo not given) ?
TRPV1 PAM: -22; CtBP-E1A inh: 1; Six1-Eya2 inh: 6; TRPML1 inh: -10; TRPML1 ag: -0.3; D2 PAM: -4

Results for CCc1ccc(C(=O)COC(=O)c2ccc(-c3nnc(-c4ccccc4)o3)cc2)cc1 ?
TRPV1 PAM: -2; CtBP-E1A inh: -1; Six1-Eya2 inh: -2; TRPML1 inh: 3; TRPML1 ag: 0.1; D2 PAM: -2

Results for CCCOc1ccc2ccccc2c1/C=N/n1cnnc1 ?
TRPV1 PAM: 2; CtBP-E1A inh: -4; Six1-Eya2 inh: -2; TRPML1 inh: -1; TRPML1 ag: -0.2; D2 PAM: -5

What do the screens show for `Cc1cc(C=C2C(=O)c3ccccc3C2=O)c(C)n1-c1cccc(C(=O)O)c1`?
TRPV1 PAM: 13; Six1-Eya2 inh: -5; TRPML1 inh: 26; TRPML1 ag: 1.2; D2 PAM: -1

What do the screens show for `COc1ccccc1C(=O)NCC(=O)n1nc(C)cc1C`?
TRPV1 PAM: 14; CtBP-E1A inh: 2; Six1-Eya2 inh: 2; TRPML1 inh: 9; TRPML1 ag: 0.8; D2 PAM: -15

Results for Cc1cccc(OCC(=O)Oc2ccc(Cl)cc2)c1 ?
CtBP-E1A inh: -6; Six1-Eya2 inh: 7; TRPML1 inh: 15; TRPML1 ag: 2.3; D2 PAM: -4

How did COC(=O)c1ccc(Cn2nc(C)cc2C)cc1 do in these assays?
TRPV1 PAM: 3; CtBP-E1A inh: 5; Six1-Eya2 inh: 1; TRPML1 inh: 34; TRPML1 ag: -0.2; D2 PAM: 23

How did COc1ccccc1N1CCN(C(=O)CCCNC(=O)Cn2cnc3sc(C)c(C)c3c2=O)CC1 do in these assays?
TRPV1 PAM: 5; CtBP-E1A inh: -18; Six1-Eya2 inh: -17; TRPML1 inh: 2; TRPML1 ag: -0.9; D2 PAM: 3

How did O=C(/C=C/c1ccccn1)c1ccc(Br)cc1O do in these assays?
TRPV1 PAM: -8; CtBP-E1A inh: 10; Six1-Eya2 inh: 7; TRPML1 inh: 27; TRPML1 ag: 0.9; D2 PAM: -5

Results for CN(C)S(=O)(=O)c1ccc(NC(=O)C2CC(=O)N(Cc3ccccc3Cl)C2)cc1 (stereo not given) ?
TRPV1 PAM: -10; CtBP-E1A inh: 2; Six1-Eya2 inh: 5; TRPML1 inh: 12; TRPML1 ag: 0.2; D2 PAM: -13

Nothing new here: 5 of the compounds above.
Results for CC(C)=CCC(C)(C)C1OCCN1C(=O)Nc1ccccc1 (stereo not given) ?
TRPV1 PAM: -22; CtBP-E1A inh: 1; Six1-Eya2 inh: 6; TRPML1 inh: -10; TRPML1 ag: -0.3; D2 PAM: -4

Results for CCc1ccc(C(=O)COC(=O)c2ccc(-c3nnc(-c4ccccc4)o3)cc2)cc1 ?
TRPV1 PAM: -2; CtBP-E1A inh: -1; Six1-Eya2 inh: -2; TRPML1 inh: 3; TRPML1 ag: 0.1; D2 PAM: -2

Results for CCCOc1ccc2ccccc2c1/C=N/n1cnnc1 ?
TRPV1 PAM: 2; CtBP-E1A inh: -4; Six1-Eya2 inh: -2; TRPML1 inh: -1; TRPML1 ag: -0.2; D2 PAM: -5

What do the screens show for `Cc1cc(C=C2C(=O)c3ccccc3C2=O)c(C)n1-c1cccc(C(=O)O)c1`?
TRPV1 PAM: 13; Six1-Eya2 inh: -5; TRPML1 inh: 26; TRPML1 ag: 1.2; D2 PAM: -1

What do the screens show for `COc1ccccc1C(=O)NCC(=O)n1nc(C)cc1C`?
TRPV1 PAM: 14; CtBP-E1A inh: 2; Six1-Eya2 inh: 2; TRPML1 inh: 9; TRPML1 ag: 0.8; D2 PAM: -15
